NPYLR7 ag – activates Aedes aegypti NPYLR7 receptor. HEK293T NPYLR7/Galpha15, GCaMP6s calcium fluorescence. 270,000 tested, 0.15% active. activation, % at 10 µM; in the data active = activation above about 40%;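 also: 0% = vehicle and 100% = reference agonist at the receptor; some compounds past the cut are filed as inactive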
NPYLR7 ag max-min – also measured in NPYLR7 ag; calls as there; activation, %; measured here: Max-Min RFU normalised activation; some inactives read as strong as hits;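 span of the calcium signal over five minutes; 0% = vehicle and 100% = native peptide agonist; compound fluorescence can raise it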
* hit, by the source's call; & = joins results of further samples. Only part of the results is shown (hit frequency here may not be typical).

SMILES	NPYLR7 ag	NPYLR7 ag max-min
CCC(c1nc2ccccc2c(=O)n1CCOC)N(CCCOC)C(=O)C1CC1c1ccccc1 (centres undefined)	-11	-17
O=C(O)c1ccc(Cl)c(S(=O)(=O)Nc2ccccc2F)c1	5	2
COc1ccc(OC)c(Nc2ncnc3sccc23)c1	4	1
Cc1ccc(S(=O)(=O)N2CCCCC2)cc1C(=O)OCc1c(C)noc1C	-8	-8
O=C(Cc1ccncc1)N1CCc2nnc(CCc3ccccc3)n2CC1	0	-1
Cc1c(C(=O)NC(C)c2cn3ccsc3n2)cnn1-c1ccccn1 (centres undefined)	7	4
Cc1cc(C(=O)CSCc2cc(=O)n3c(C)csc3n2)c(C)n1C1CC1	1	2
NCCC[C@H](N)CC(=O)N[C@H]1CNC(=O)[C@H]([C@H]2C[C@H](O)N=C(N)N2)NC(=O)C(C=NC(N)=O)NC(=O)[C@H](CO)NC(=O)[C@H](CO)NC1=O (some centres undefined)	-3	-11
COc1cc(=O)n(-c2ccccc2C)nc1C(=O)N1c2ccc(F)cc2CCC1C (centres undefined)	6	5
COc1ccccc1C(=O)Nc1ccc(O)c(-c2nc3cc(C)ccc3o2)c1	3	-6
Cc1onc(-c2ccccc2Cl)c1C(=O)N1CC(C)OC(C)C1 (centres undefined)	8	11
NS(=O)(=O)c1cc(C(=O)N2CCc3ccccc32)ccc1F	3	3
CCS(=O)(=O)c1ccc2oc(-c3ccc(NC(=O)C4CCC4)cc3)nc2c1	27	29
COCCCN1CCCN(S(=O)(=O)c2ccc(C)cc2F)CC1	0	-10
C=CCn1c(SCc2nc(-c3cccs3)no2)nnc1C1CCCCC1	6	11
CCOC(=O)C1CCN(C(=O)c2ccc(CSc3nc(C(C)C)cc(N4CCN(c5ccccc5F)CC4)n3)o2)CC1	-11	-5
CC(C)c1nc(C(=O)NC2CCCN(Cc3ccccn3)C2)cs1 (centres undefined)	13	2
Cc1ccc(Nc2ccc(N3CCN(C(=O)c4ccccc4[N+](=O)[O-])CC3)nn2)cc1	-1	-1
COc1cc(C(=O)O)c(CNC(=O)CSc2n[nH]c(-c3ccccc3)n2)c(OC)c1OC	-5	-7
Cc1cc(C)c(C#N)c(Nc2ccc(Br)cc2)n1	0	-3
NS(=O)(=O)CCN1CCc2cc(Cl)cc(Cl)c2C1	4	1
Cc1ccc(C(CNC(=O)COc2ccccc2)N2CCN(C)CC2)cc1 (centres undefined)	2	-3
COc1cccc(C(CN2CCN(C(=O)c3cc(C)oc3C)CC2)OCc2ccc(C#N)cc2)c1 (centres undefined)	2	-10
CCN(Cc1nc(COC)no1)C(=O)c1ccccc1-c1ccccc1	1	1
O=C(Cn1cnc2scc(-c3ccccc3)c2c1=O)NC1CC1	6	7
O=[N+]([O-])c1cc(C(F)(F)F)cc([N+](=O)[O-])c1NN=C1CC2CC=CC12 (centres undefined)	-1	-2
Cc1ccc(Cc2nc(N3CCCN(C(=O)c4ccccc4Cl)CC3)c3c(-c4cccnc4)noc3n2)cc1	16	5
Cc1cccc(OC2CCN(C(=O)CN3C(=O)OC[C@@H]3C(C)C)CC2)c1	-2	-5
COc1cccc(OS(=O)(=O)c2cn(C)c(=O)n(C)c2=O)c1	1	0
O=c1nc2ccccc2c2n1CC(CN1CCN(c3ccccc3)CC1)N2 (centres undefined)	-1	-2
O=C(Cn1nc(-c2cccc(Br)c2)ccc1=O)NC1CCCC1	15	10
c1ccc(-c2ncn(CCCNc3cccnc3)c2-c2ncc[nH]2)cc1	6	6
CC1(C)C[C@H]2C[C@@H](O)[C@H](N3CCC(c4ccccc4)CC3)[C@]2(O)CO1	4	13
CC1=CC[C@@H]2CN(C(=O)c3c(-c4ccccc4)ccnc3C)C[C@@H]2C1	-3	-1
CCc1cccc2c(C(CC(=O)N3CCN(Cc4ccccc4)CC3)c3cccc(F)c3)c[nH]c12 (centres undefined)	19	20
O=C(NCc1ccco1)N1CCC(C(=O)N2CCc3ccccc32)CC1	9	5
COc1ccc(-c2nnc3ccc(OCCNC(=O)Nc4ccccc4)nn23)cc1OC	-2	-4
O=C(c1cccc(Br)c1)N1N=C(C2CCCCC2)CC1(O)C(F)(F)F (centres undefined)	2	1
CC(=O)c1c(C)[nH]c(C(=O)CSc2nnnn2C2CCCC2)c1C	2	0
CC1CN(CN2C(=O)c3ccccc3C2=O)CC(C)O1 (centres undefined)	1	-1
Cc1cnc(C(=O)N2CCOC(COc3cccc(C(F)(F)F)c3)C2)cn1 (centres undefined)	25	22
CCOc1cc(/C=C(/C#N)c2ccc(F)cc2)ccc1OCc1ccc(C(=O)O)o1	-18	-23
O=C(Cn1ccc(=O)[nH]c1=O)NCCCN1c2ccccc2Sc2ccccc21	2	1
CCc1cc(N2CCN(c3ccccc3F)CC2)nc(SCc2ccc(C(=O)NCc3ccc4c(c3)OCO4)cc2)n1	-5	-4
O=C(Nc1cccc(OCc2ccccc2)c1)c1cc(Nc2ccc(O)cc2)ncn1	1	0
COc1cc(Cl)c(C)cc1NC(=O)Cn1nnc2ccccc2c1=O	-6	-9
NCCC1CCCN(C(=O)c2c(O)cccc2O)C1 (centres undefined)	3	1
CC(C(=O)Nc1cccc(Cl)c1)N(C)Cc1cccs1 (centres undefined)	1	0
Cc1ccc(OCC2CN(C(=O)CNC(=O)CNC(=O)c3ccccc3)CCO2)cc1 (centres undefined)	-7	-12
COCCn1cc(NC(=O)Nc2ccccc2F)c2ccccc21	14	6
COc1ccc2c(c1)N(CNC1(c3ccc(Cl)cc3)CCCC1)C(=O)C2=O	12	9
COc1cc(CN2C(=O)C(C)ON=C2c2ncccc2C)cc(OC)c1 (centres undefined)	7	8
CC(C)c1nc(C#N)c(N/N=C\c2cccc(Br)c2)o1	-2	-8
Cc1ccc(OCC(=O)NNC(=O)Nc2ccccc2)cc1	4	-2
COC(=O)CCCCC(=O)N1CCN(c2nc3ccccc3nc2-c2ccccc2)CC1	-1	-12
CC(NC(c1ccccc1)C(C)C)c1ccc(S(=O)(=O)N(C)C)cc1 (centres undefined)	0	-2
O=C(CC(=O)Nc1nccs1)Nc1nccs1	10	1
C=CCNc1ccccc1C(=O)NC1CCN(S(C)(=O)=O)CC1	21	17
Cc1nc2sc(C)c(C)n2c(=O)c1NC(=O)c1ccc(F)cc1	11	3
CC(NC(=O)C(=O)NC1CC1)C1CCN(C)CC1 (centres undefined)	0	-3

In a second layout: entries from further up
Values run as follows: NPYLR7 ag, NPYLR7 ag max-min
> CCC(c1nc2ccccc2c(=O)n1CCOC)N(CCCOC)C(=O)C1CC1c1ccccc1 (centres undefined)
 : -11, -17
> O=C(O)c1ccc(Cl)c(S(=O)(=O)Nc2ccccc2F)c1
 : 5, 2
> COc1ccc(OC)c(Nc2ncnc3sccc23)c1
 : 4, 1
> Cc1ccc(S(=O)(=O)N2CCCCC2)cc1C(=O)OCc1c(C)noc1C
 : -8, -8
> O=C(Cc1ccncc1)N1CCc2nnc(CCc3ccccc3)n2CC1
 : 0, -1
> Cc1c(C(=O)NC(C)c2cn3ccsc3n2)cnn1-c1ccccn1 (centres undefined)
 : 7, 4
> Cc1cc(C(=O)CSCc2cc(=O)n3c(C)csc3n2)c(C)n1C1CC1
 : 1, 2
> NCCC[C@H](N)CC(=O)N[C@H]1CNC(=O)[C@H]([C@H]2C[C@H](O)N=C(N)N2)NC(=O)C(C=NC(N)=O)NC(=O)[C@H](CO)NC(=O)[C@H](CO)NC1=O (some centres undefined)
 : -3, -11
> COc1cc(=O)n(-c2ccccc2C)nc1C(=O)N1c2ccc(F)cc2CCC1C (centres undefined)
 : 6, 5
> COc1ccccc1C(=O)Nc1ccc(O)c(-c2nc3cc(C)ccc3o2)c1
 : 3, -6
> Cc1onc(-c2ccccc2Cl)c1C(=O)N1CC(C)OC(C)C1 (centres undefined)
 : 8, 11
> NS(=O)(=O)c1cc(C(=O)N2CCc3ccccc32)ccc1F
 : 3, 3
> CCS(=O)(=O)c1ccc2oc(-c3ccc(NC(=O)C4CCC4)cc3)nc2c1
 : 27, 29
> COCCCN1CCCN(S(=O)(=O)c2ccc(C)cc2F)CC1
 : 0, -10

Additional results follow.
SMILES	NPYLR7 ag	NPYLR7 ag max-min
COCCNC(=O)CCC1CCN(C(=O)Nc2cc(C)ccc2OC)CC1	2	1
Cc1nnc(NC(=O)c2nn(CC(C)C)c(=O)c3ccccc23)s1	-34	-32
O=[N+]([O-])c1ccc(OC(F)F)cc1	5	3
COC(=O)Cc1ccc(NS(=O)(=O)c2ccc(OC)cc2C)cc1	7	3
CCn1c(C)[n+](CC)c2ccc(S(=O)(=O)C(F)(F)F)cc21	4	2
N#Cc1cccc(OC2CC3CCC(C2)N3C(=O)c2ccc(CSc3ccc(F)c(F)c3)cc2)c1 (centres undefined)	6	-2
CCCCc1ccc(-c2nc(C=Nc3ccccc3Cl)c(O)o2)cc1	10	1
COc1ccc2c(c1)CC(NCCNc1cccnc1)CC2 (centres undefined)	2	3
O=C(NC(=S)NC1CCCCC1NC(=S)NC(=O)c1ccco1)c1ccco1 (centres undefined)	1	-2
Cc1noc(C)c1NC(=O)N1CC[C@@](C)(O)[C@@H](CC(C)C)C1	6	3
CCN1CCN(C(=O)N(C/C=C/c2ccccc2)S(=O)(=O)c2ccc(C)cc2)CC1	2	-1
CCOc1c(CC)cnc2c1c(=O)n(CC(=O)N(C)c1ccccc1)c(=O)n2C	-3	-4
Oc1c(C(Nc2ncccn2)c2ccc(F)cc2)ccc2cccnc12 (centres undefined)	2	0
CN(C)c1ccc(C(=O)N2CCN(C3c4ccccc4CCc4ccccc43)CC2)cc1	11	17
CC(C)(CCl)C(=O)N1CCC(C(=O)NCCNC(=O)c2ccccc2)CC1	22	27
CC(c1ccc2ccccc2c1)N(Cc1ncc(Cl)n1C)C1CC1 (centres undefined)	-2	1
Cc1cc(NC(=O)c2cc(Cl)sc2Cl)n(-c2nc3ccccc3s2)n1	-12	-19
O=C(c1ccno1)N(CCCN1CCOCC1)c1nc2ccc(F)cc2s1	0	22
CCOC(=O)c1nn(-c2ccc(C)cc2)c(=O)c2c(NC(=O)CCCCl)scc12	5	1
OCC(CO)Nc1ccnc2ccc(Cl)cc12	-1	9
CCn1nc(C)cc1C(=O)N(CCCN(C)C)c1nc2c(OC)ccc(Cl)c2s1	4	6
CN(C)c1nc(-c2ccccc2)nc2c1CN(C(=O)Nc1ccc(Cl)cc1Cl)CC2	-2	8
Cc1ccsc1CNc1cccc(C(=O)N2CCC[C@H]2C(N)=O)c1	5	6
Clc1ccc(C2=CSC3=NCCN23)cc1Cl	16	11
COc1ccc(C(=O)CSc2nc(N)c(NC(=O)c3ccccc3)c(=O)[nH]2)cc1	-2	-6
COc1ccc(CC(=O)N2CCc3ccccc3C2c2ccc(Cl)cc2)cn1 (centres undefined)	-5	4
CCc1ccccc1SCc1ccc(C(=O)N2C3CCC2CC(Oc2cc(C)ccc2Cl)C3)cc1 (centres undefined)	10	-2
Fc1ccccc1Cc1noc(CN2CCN(c3cccc(C(F)(F)F)c3)CC2)n1	10	4
COc1ccc(C(CC(=O)NC(C)C)c2c[nH]c3ccccc23)cc1OC (centres undefined)	2	13
COC(C)c1ccc(-c2ccc(CN3CCNCC3)cc2)cc1 (centres undefined)	14	4
COC(=O)c1ccc(CCNC(=O)c2cccc(CS(C)(=O)=O)c2)cc1	-2	-5
CCC(c1nnc(SC(C)C(N)=O)n1Cc1ccccc1)N(C)C (centres undefined)	8	7
CCOC(=O)c1sc2ccsc2c1CN	6	4
Cc1ccnc(N2CCC(N3CCCC(C(=O)NCc4ccccn4)C3)CC2)n1 (centres undefined)	2	-1
Cc1c(C(=O)N2CCOCC2)nnn1-c1ccc2noc(-c3ccccc3)c2c1	4	2
COCCCN(CC(=O)N1CCc2sccc2C1c1ccc(Cl)cc1Cl)C(=O)c1cccc(F)c1 (centres undefined)	-4	-9
C=CCN1CCC(Nc2nc(C)ns2)CC1	1	-4
O=C(C1CCCC1)N1CCCC(OCCOc2ccccc2)C1 (centres undefined)	16	18
O=C(COC(=O)CNC(=O)C1CCCCC1)NC1CCCC1	2	6
O=C1CSC2=NCN(c3ccc(I)cc3)CN12	1	17
Cn1c(=O)c2c(ncn2C)n(C)c1=O	-6&4	-12&-4
CCc1cn[nH]c1C1CCCN(C(=O)c2cc3sccc3[nH]2)C1 (centres undefined)	0	-3
O=C(O)CCc1nc(-c2ccccc2)c(-c2ccccc2)o1	4&-10&18&3	-3&-15&12&-20
O=[N+]([O-])c1ccc2[nH]c(O)c(N=Nc3ccc(F)cc3)c2c1	0	-6
COc1ccc(-c2cc(CNC(=O)COc3ccccc3OC)no2)cc1	3	1
COC(=O)c1cnn(-c2cc(Cl)nc(SC)n2)c1N	4	6
CCCn1nc(C(=O)NNC(=O)c2ccc(Br)s2)ccc1=O	0	2
O=c1[nH]c(O)c(C=Nc2ccc([N+](=O)[O-])cc2)c(=O)[nH]1	4	1
CCn1c(CN2CCC(CCC(=O)NCC3CCCO3)CC2)nc2ccccc21 (centres undefined)	5	6
COc1ccc(-n2c(=O)[nH]c3c(C(N)=O)nc(C(C)C)nc32)c(OC)c1	-3	-8
CC1CCCC(C)N1C(=O)CN1CCC(c2ccc(O)cc2)CC1 (centres undefined)	-3	-5
COc1ccc(-c2onc(C)c2C(=O)NCCCSC)cc1	-2	0
CN(CC(=O)N1CCCC1)c1ncnc2sc3c(c12)CCCCC3	-3	-4
Cc1cccc(CSc2nc(C)cc(Oc3ccc(F)cc3)n2)c1	-6	-5
O=C(Nc1cccc(N2CCC(NCc3cccc(OC(F)(F)F)c3)CC2)c1)C1CC1	21	11
Cc1nonc1CC(=O)N1CCCC(CCC(=O)N2CCN(Cc3ccccc3)CC2)C1 (centres undefined)	16	2
COc1ccc(-n2c(SCC(=O)N3CCN(C(=O)c4ccccc4OC)C(C)C3)nnc2-c2cccc(OC)c2)cc1 (centres undefined)	4	12
Cc1nn(C(C)(C)C)c2c1C(c1cccs1)C1C(=O)CCCC1=N2 (centres undefined)	2	0

Some of the entries above, set out differently.
The line under a structure holds: NPYLR7 ag	NPYLR7 ag max-min
> COc1ccc(-c2onc(C)c2C(=O)NCCCSC)cc1
  -2	0
> CN(CC(=O)N1CCCC1)c1ncnc2sc3c(c12)CCCCC3
  -3	-4

Screens (PubChem)
